Source: PubChem (National Center for Advancing Translational Sciences (NCATS))
RE007 growth inh: less growth of the S. pombe RE007 Vpr strain; actives 0.21% (n = 360,000); S. pombe RE007 Vpr strain, BacTiter-Glo ATP luminescence, 24 h; control for the full effect not named in the record; Potency, µM (series often up to 92.2 µM), for inactives: top-dose activity change, negative = less growth; active = well fitted falling curve with a large enough effect; inconclusive = small, poorly fitted or top-dose-only effect; inactive = no such curve, though single readings can be large or run the other way;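 note: % is set by controls: 0 for no effect and ±100 for the full control effect; nearly all actives have a fitted effect of over 50% in size; the assay follows cell death caused by Vpr and the record does not say whether a fall means rescue or toxicity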
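Fission yeast RE007 carrying one integrated HIV-1 vpr copy, seeded at OD 0.01 in PMG+AL medium with 23 nL pinned compound. Grown 24 h at 30 degrees; viability read by BacTiter-Glo luminescence after 5 min.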
Lassa entry inh: blocks Lassa virus binding to or entry into cells | Lassa virus pseudotype entry inhibition, cell reporter; control for the full effect not named in the record | Potency, µM (top dose mostly 37.9 µM), for inactives: at the highest dose activity change, negative = inhibition, most hits filed as inhibitors | actives 1.2% (n = 300,000); active means well fitted inhibition curve with a large enough effect; inconclusive means small, poorly fitted or top-dose-only effect, or effect the other way; inactive means flat fitted curve, though single readings scatter; tested in HEK293 cells; note: % is set by controls: 0 for no effect and ±100 for the full control effect; nearly all actives have a fitted effect of over 50% in size; luciferase read-out
MARV entry inh: Marburg virus entry inhibition | actives 1.8% (n = 300,000) | Marburg virus pseudotyped entry inhibition, cell reporter; control for the full effect not named in the record; about a third of the inactives were read at about 46 µM | AID 540276 | Potency, µM (doses to about 37.8 µM), for the others: top-dose activity change, negative = inhibition, usual class: inhibitors; active = well fitted inhibition curve with a large enough effect; inconclusive = small, poorly fitted or top-dose-only effect, or effect the other way; inactive = flat fitted curve, though single readings scatter; tested in HEK293 cells; about a fifth of its hits are not listed in these tables; note: % is set by controls: 0 for no effect and ±100 for the full control effect; luciferase read-out
Cruzain Triton: blocks cruzain activity in presence of Triton detergent; purified cruzain, Z-FR-AMC fluorescence, 0.01% Triton; Potency, µM, inactives show max response, negative = inhibition, hits mostly inhibitors; actives 0.43% (n = 200,000);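 note: plate controls were neutral wells for no effect and buffer without enzyme for full effect; nearly all actives have a fitted effect of over 40% in size; top concentration of the series not given in the record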
Target sequence (P25779 123-467 limits assumed): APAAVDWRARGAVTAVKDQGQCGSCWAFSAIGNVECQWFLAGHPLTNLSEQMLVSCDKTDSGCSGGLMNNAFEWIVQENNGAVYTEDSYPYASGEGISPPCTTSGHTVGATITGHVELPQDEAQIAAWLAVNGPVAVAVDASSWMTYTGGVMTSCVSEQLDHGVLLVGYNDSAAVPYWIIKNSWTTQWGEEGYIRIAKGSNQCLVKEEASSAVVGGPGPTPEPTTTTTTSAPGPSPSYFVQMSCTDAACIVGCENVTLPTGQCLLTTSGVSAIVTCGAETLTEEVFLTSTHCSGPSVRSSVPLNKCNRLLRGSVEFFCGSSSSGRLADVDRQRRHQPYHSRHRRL
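Steps: dispense cruzain (1.5 nM final) in acetate buffer pH 5.5 with DTT and 0.01% Triton X-100; pin-transfer compounds; incubate 15 min RT; add Z-FR-AMC (2 uM final); read fluorescence every 30 s, using the 60 s intensity change.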
SARS PLP yeast: inhibitors of SARS-CoV papain-like protease in yeast; S. cerevisiae expressing SARS-CoV PLpro, growth rescue; control for the full effect not named in the record; actives 0.19% (n = 330,000); Potency, µM (titrated, usually from 32.9 µM), for the others: at the highest dose activity, positive = growth rescue; active means well fitted rising curve with a large enough effect; inconclusive means small, poorly fitted or top-dose-only effect; inactive means no such curve, though single readings can be large or run the other way; note: 0% is about no effect; nearly all actives have a fitted effect of over 55% in size; growth read by luminescence after 48 h
NS1 inh: blocks influenza NS1 protein function. Potency, µM (series often up to 46.1 µM), for inactives: at the highest dose activity, positive = more growth. actives 0.4% (n = 270,000). S. cerevisiae slowed by influenza A NS1, growth recovery by OD600. AID 2326; active means well fitted rising curve with a large enough effect; inconclusive means small, poorly fitted or top-dose-only effect; inactive means no such curve, though single readings can be large or run the other way; note: nearly all actives have a fitted effect of over 50% in size
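OD600 was taken as the measure of yeast growth restored by compound in an NS1-expressing S. cerevisiae strain. Cells had been washed out of glucose medium and diluted 1:100 into galactose -URA medium, pH 6.0.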
Cruzain noTriton: cruzain (T. cruzi) inhibition without detergent | Potency, µM, for inactives: max response, negative = inhibition, actives largely listed as inhibitors | AID 1476 | actives 2.3% (n = 200,000) | P25779 | purified cruzain, Z-FR-AMC fluorescence, no detergent;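 note: plate controls were enzyme without inhibitor for no effect and buffer without enzyme for full effect; nearly all actives have a fitted effect of over 40% in size; top concentration of the series not given in the record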
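Purified cruzain at 1.5 nM, pre-incubated 15 min with compound at room temperature in 100 mM sodium acetate pH 5.5, 5 mM DTT, 0.00005% Triton X-100. Reaction started with 2 uM Z-FR-AMC; AMC fluorescence increase over 60 s gives rate.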
StopGo reporter: lowers the luciferase signal of an FMDV 2A StopGo reporter | human cells with a luciferase reporter of 2A StopGo recoding; control for the full effect not named in the record | Potency, µM (series often up to 57.9 µM), without a hit: at the highest dose signal change, negative = less light | actives 1.2% (n = 410,000) | AID 1159524; active = well fitted falling curve with a large enough effect; inconclusive = small, poorly fitted or top-dose-only effect; inactive = no such curve, though single readings can be large or run the other way; tested in HEK293T cells; note: % is set by controls: 0 for no effect and ±100 for the full control effect; nearly all actives have a fitted effect of over 45% in size; luciferase light after 4 h
Numbers without * were called inactive; ? = inconclusive; / = no result given; & = joins results of further samples; [ ] = dose if it differs, or a comment. Unless noted, calls come from the whole dose curve; as a rule, active = well fitted curve in the direction sought with a large enough effect; inconclusive = small, poorly fitted or top-dose-only effect, or another doubt; inactive = no such curve, though single readings can be large; an effect the other way counts as inactive or inconclusive. Potency is the fitted concentration of half-maximal effect.

SMILES | RE007 growth inh | Lassa entry inh | MARV entry inh | Cruzain Triton | SARS PLP yeast | NS1 inh | Cruzain noTriton | StopGo reporter
Cn1c(C(=O)N2CCN(C(=O)c3ccco3)CC2)cc2c(=O)n3ccccc3nc21 | -0.3% | 2.9% | -3.9% | 25.1µM* | 5.5% | 0.9% | ? | -19.9%
CCOC(=O)c1sc(NS(=O)(=O)c2ccccc2)nc1C | 7.8% | 1.0% | 7.7% | -1.5% | 5.9% | 10.1% | 0.6% | /
CCOC(=O)C(C)n1cnc2c(cnn2-c2ccc(Cl)cc2)c1=O (stereo unspecified) | 32.1% | -23.9% | 5.8% | 2.4% | 1.7% | 1.7% | 6.3% | -49.1%
COc1ccc(C)cc1NC(=O)NC(C)c1ccncc1 (stereo unspecified) | 18.5% | / | / | / | 0.1% | 2.3% | / | -14.3%
N#C/C(=C\c1cccc(Oc2ccc(C(F)(F)F)cc2[N+](=O)[O-])c1)c1nc2ccccc2[nH]1 | -8.8% | 25.5% | -13.0% | 1.5% | -1.7% | -23.3% | -10.7% | -26.4%
CCCCNC(=O)C1CC(=O)N(CCC(C)C)C1 (stereo unspecified) | 6.2% | -7.7% | 6.3% | 3.2% | -7.1% | -0.3% | 2.1% | -16.0%
Cc1cccc(C)c1NC(=O)CSc1cc(C(=O)c2nccn2C)c2ccccc2n1 | -9.0% | ? | ? | -1.8% | -4.6% | 19.3% | 4.3% | -27.8%
Oc1ccc2c3c1O[C@H]1c4[nH]c5c(c4C[C@@]4(O)[C@@H](C2)N(CC2CC2)CC[C@]314)C[C@]1(O)[C@H]2Cc3ccc(O)c4c3[C@@]1(CCN2CC1CC1)[C@@H]5O4 | / | / | -27.9% | 3.4% | / | / | 6.3% | -18.6%
CCC1CCCCN1S(=O)(=O)c1ccc(NC(=O)C2CC(=O)N(C(C)(C)C)C2)cc1 (stereo unspecified) | 8.2% | 1.7% | 1.0%[46.1 µM] | / | / | / | / | 37.8%[activator]
NS(=O)(=O)c1ccc(NC(=O)CCc2ccccc2)cc1 | 10.9% | 1.9% | -1.1% | 2.9% | -1.3% | -6.9% | 4.7% | 13.9%
Cc1cccc(NC(=O)c2ccc3c(c2)OCCO3)n1 | -18.4% | ? | / | / | 16.2% | -5.8% | / | -22.5%
COc1ccc(C2CC(=O)N3CN(c4ccc(C)c(Cl)c4)CSC3=C2C#N)cc1 (stereo unspecified) | -0.3% | / | 4.7% | -5.7% | 3.7% | -42.2% | -16.7% | 7.9%
O=C(Nc1nc2c(F)cc(F)cc2s1)c1ccc([N+](=O)[O-])o1 | -9.7% | / | / | / | -7.2% | -9.5% | / | -3.6%
CCCCNc1ncnc2sc3c(c12)CCN(CCC)C3 | -16.9% | / | / | / | 0.4% | -1.5% | / | -25.4%
Nc1[nH]c2cc([N+](=O)[O-])ccc2c1-c1ccccn1 | -5.2% | -29.3%[46.1 µM] | -24.6%[46.1 µM] | / | -7.3% | -38.2% | / | -7.5%
CCOc1ccccc1CNCc1c(C(=O)O)n(Cc2ccccc2)c2cc(OC)ccc12 | / | -7.9%[46.1 µM] | / | -1.0% | / | / | 16.1% | 16.5%
O=C(Nc1ccccc1)/C(=C1\CCCN1)[N+](=O)[O-] | -8.2% | 14.2% | ? | / | -0.8% | / | / | 25.3%
Cc1ccc(C(=O)Nc2ncc([N+](=O)[O-])s2)cc1 | ? | / | / | / | -24.0% | -141.8% | / | 8.91µM*
CCN(C(=O)c1cc2c(=O)oc3ccccc3c2s1)c1cccc(C(F)(F)F)c1 | / | -13.1%[46.1 µM] | 4.5%[46.1 µM] | 9.7% | / | / | -0.3% | 0.0%
CC1(C)C(=O)CCC2(C)C1=CCC1C2C(=O)CC2(C)C1CCC2(O)C(=O)CO (stereo unspecified) | -11.5% | ? | -26.4% | / | / | / | / | -26.9%
Cc1ccc(C)c(NC(=O)c2ccccc2NS(=O)(=O)c2cc([N+](=O)[O-])ccc2C)c1 | 2.8% | ? | 4.11µM* | -2.5% | -12.4% | -9.7% | -3.3% | ?
COc1ccccc1C1=NOC(Cn2c(=O)c3c(ncn3C)n(C)c2=O)C1 (stereo unspecified) | 4.7% | 27.2% | 14.0% | 3.0% | 3.8% | -0.3% | -2.5% | 14.6%
O=C(/C=C/c1ccccn1)c1cc(Br)ccc1O | ? | 13.0% | ? | / | -3.4% | -41.0% | / | ?
CCc1ccc(NC(=O)c2cnn(-c3c(C)cccc3C)c2C2CCN(C(=O)OC(C)(C)C)CC2)cc1 | / | ? | / | -1.1% | / | / | -10.1% | 0.0%
COCCCn1c(=O)c2sccc2n(Cc2ccccc2)c1=O | 12.6% | -6.8% | 12.3% | / | -11.3% | 4.7% | / | -14.2%
COc1cc(SC)ccc1C(=O)Nc1ncc(C)s1 | -17.2% | ? | 1.46µM* | / | -2.6% | / | / | 10µM*
COc1ccc(CCNC(=O)N2c3ccccc3Sc3ccccc32)cc1 | 14.8% | ? | ? | / | / | / | / | 17.8µM*
CC(=O)c1ccc(NC(=O)c2cnsn2)cc1 | -18.5% | ? | -28.0%[46.1 µM] | / | -1.0% | -4.6% | / | 29.9%
CS(=O)(=O)c1ccc2nc(NC(=O)c3ccc(Cl)cc3)sc2c1 | 8.1% | 5.8%[46.1 µM] | -2.6%[46.1 µM] | / | 1.3% | -16.1% | / | 5.8%
Cc1cccc(Cn2cnc3ccccc32)c1 | -20.4% | -0.1% | ? | 4.5% | 13.6% | -14.0% | -6.8% | -7.9%
Cc1cc(NC(=O)CSc2nc(-c3cccnc3)ccc2C#N)no1 | 5.1% | ? | ? | 0.9% | -8.2% | -1.4% | ? | -5.7%
Cc1cccc(C(C(=O)NC2CCCCC2)N(C(=O)c2csnn2)C2CC2)c1 (stereo unspecified) | -4.6% | ? | -4.5%[46.1 µM] | / | 12.6% | 3.7% | / | -6.4%
CCc1ccccc1N1C(=O)N(CC(=O)c2ccc(OC)cc2)c2ccccc2S1(=O)=O | / | -17.8%[46.1 µM] | / | 0.0% | / | / | -29.1% | -12.4%
CC(=O)c1cc(C(=O)N2CCc3c([nH]c4ccccc34)C2CC(C)C)[nH]n1 (stereo unspecified) | -8.4% | ? | ? | / | -0.3% | -3.7% | / | -12.9%
CC(C)NC(=O)CCN1C(=O)c2ccccc2Sc2ncccc21 | 16.6% | 0.8%[46.1 µM] | / | 0.0% | -1.2% | -4.4% | 0.7% | -24.8%&-13.3%
CN1CCN(C2(CNC(=O)COc3ccc(C(C)(C)C)cc3)CCCCC2)CC1 | / | -16.7%[46.1 µM] | ? | 0.2% | / | / | -0.3% | -18.4%
CC(C)CN(C(=O)COC(=O)CNC(=O)c1ccc(Cl)cc1)C1CCS(=O)(=O)C1 (stereo unspecified) | -13.2% | / | -2.6%[46.1 µM] | / | 1.7% | / | / | 12.5%
Cc1ccc(NC(=O)Cn2cnc3onc(-c4ccc(F)cc4)c3c2=O)c(Cl)c1 | / | 6.7%[46.1 µM] | / | 0.1% | / | / | -6.0% | -23.5%
COC(=O)Cn1ncc(N2CC(C)OC(C)C2)c(Cl)c1=O (stereo unspecified) | 4.9% | -5.9% | -17.9%[46.1 µM] | / | 2.7% | 8.8% | / | 18.8%
CCOC(=O)C1CCN(c2cc(=O)n(-c3ccccc3Cl)c(=O)[nH]2)CC1 | 3.7% | -3.9% | 3.1% | -0.7% | ? | 5.7% | -1.9% | /
CC(Sc1nc2ccccc2[nH]1)C(=O)NC1CCCCC1C (stereo unspecified) | 1.1% | 3.2% | -24.0% | / | 3.3% | 9.0% | / | ?
Cc1cccc(/C(N)=N/OC(=O)CCCN2C(=O)c3ccccc3C2=O)c1 | -4.2% | -15.7% | 0.4% | -3.7% | -1.0% | -66.8% | -4.4% | -6.2%
CCCc1cc(=O)n2[nH]c(C)c(-c3ccc(OC)cc3)c2n1 | 10.7% | / | / | / | 3.7% | 15.9% | / | -10.5%
NC(=O)COC(=O)c1cc(=O)[nH]c2ccccc12 | -5.3% | / | / | / | 1.1% | -3.2% | / | 14.5%
CCCc1ccc(-c2ccc(-c3noc(-c4ccncc4)n3)cc2)nc1 | 6.4% | 8.0% | -5.4% | / | 6.6% | 13.9% | / | ?
CCn1c(Cc2ccccc2)nnc1SCC(=O)NC(C)(C)C | 7.9% | -3.2% | -15.3% | -0.4% | 5.4% | -0.7% | ? | 3.0%
CN(C)CCCN(C(=O)c1ccc(S(=O)(=O)N2CCOCC2)cc1)c1nc2ccc(F)cc2s1 | 6.2% | ? | -4.4% | / | 3.3% | -5.6% | / | -7.8%
O=C(NCc1ccc2c(c1)OCO2)c1cnc2n(c1=O)CCS2 | 6.1% | / | / | 0.7% | 4.3% | -2.8% | -7.8% | -6.3%
Cc1ccc(NC(=O)N2CCC(C(=O)Nc3ccc(C)cc3C)CC2)cc1 | 1.6% | -1.3% | -15.0% | -5.4% | 21.9% | -2.6% | / | -13.4%
O=C(/C=C/c1ccco1)N(Cc1cccc(Cl)c1)C1CCS(=O)(=O)C1 (stereo unspecified) | 6.9% | 13.2% | 6.0%[46.1 µM] | / | 0.1% | 1.6% | / | -12.9%
O=C(O)c1cnn2c(-c3ccc(F)cc3)ccnc12 | -8.6% | -7.5%[46.1 µM] | 2.5%[46.1 µM] | / | -2.3% | / | / | 3.9%
CCOCCCNCc1ccc(Cl)cc1 | 11.3% | ? | ? | 0.7% | -3.2% | -5.0% | 11.4% | -13.7%
CCOc1ccc(NC(=O)c2cccc3c2C(=O)N(CCOC)C3)cc1 | -17.4% | 0.9% | 0.1% | 1.1% | -0.1% | -5.1% | 12.3% | 21.8%
